# VDR inh – inhibitors of human vitamin D receptor. VDR-SRC2-3 peptide fluorescence polarization, 2 h. Potency, µM, for inactives: max response, negative = inhibition, actives largely listed as inhibitors. 400,000 tested, 0.93% active. AID 504847; active = well fitted inhibition curve with a large enough effect; inconclusive = small, poorly fitted or top-dose-only effect, or another doubt; inactive = no such curve, though single readings can be large or run the other way; also: series mostly up to about 120 µM
# Target sequence (P11473 whole entry, looked up): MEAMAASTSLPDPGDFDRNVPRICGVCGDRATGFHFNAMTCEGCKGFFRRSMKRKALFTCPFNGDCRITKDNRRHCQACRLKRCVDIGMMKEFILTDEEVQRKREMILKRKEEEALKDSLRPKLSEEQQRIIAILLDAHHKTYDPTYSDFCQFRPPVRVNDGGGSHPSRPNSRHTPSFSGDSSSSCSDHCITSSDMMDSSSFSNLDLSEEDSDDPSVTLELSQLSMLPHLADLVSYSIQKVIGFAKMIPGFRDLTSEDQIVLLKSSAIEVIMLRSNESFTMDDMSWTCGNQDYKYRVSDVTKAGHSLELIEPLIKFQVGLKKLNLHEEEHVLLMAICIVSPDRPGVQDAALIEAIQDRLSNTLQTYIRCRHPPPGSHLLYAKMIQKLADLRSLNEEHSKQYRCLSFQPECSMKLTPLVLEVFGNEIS
#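 Two reagent solutions held at 4 deg C in the dark were dispensed, compounds pinned at 23 nl, and the mixture incubated 2 h at room temperature. Read-out: fluorescence polarization of VDR–SRC2-3 peptide binding.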
# The depositor's hits bear a star; ? = inconclusive; & = joins results of further samples. % is scaled to controls: 0 for no effect and ±100 for the full control effect; potency is read from the fitted curve at half-maximal effect.
canonical_smiles | VDR inh
COc1cc2c(cc1OC)[C@@H]1C(=O)c3ccc(O)c(CC=C(C)C)c3OC1CO2 (some centres not stated) | 11%
C=Cn1ccnc1P(=S)(c1ccc(Cl)cc1)c1nccn1C=C | -27%
NCC[C@H](NC(=O)[C@@H](N)CCCN=C(N)N[N+](=O)[O-])C(N)=O | 6%
COC(=O)C12CC3=CCC4C(=O)N(c5ccccc5)C(=O)C4C3Cc3ccccc3[C@@H]1CNC2=O (some centres not stated) | 11%
O=[N+]([O-])C(Br)(CO)CO | 5.6µM*
Cc1cccc(CC(c2cccc(C)c2)N(C)C)c1 (configuration not stated) | -12%
C=C1C([C@@]2(C)C(OC(C)=O)CC(=O)O[C@@](C)(COC(C)=O)C2CC(=O)OC)C(OC=O)C(OC(=O)C(OC(C)=O)C(C)CC)[C@]2(C)C(c3ccoc3)CC(=O)C12O (some centres not stated) | 0%
Cc1cc2c(C(C)C)c(O)c(O)c(C=O)c2c(O)c1-c1c(C)cc2c(C(C)C)c(O)c(O)c(C=O)c2c1O | 6.3µM*
O=c1[nH]c(=O)n(CCC2=CCCCC2)c(O)c1C=NCc1cccnc1 | 14%
CCOc1cc(OP(=S)(OC)OC)nc(CC)n1 | 22µM*
CCN(CC)C(=O)c1ccc(NC(=O)c2ccc(N3CCCC3=O)cc2)cc1 | -4%
O=C(CCCN1CCC2(CC1)C(=O)N(Cc1cccc(F)c1)CN2c1ccccc1)c1ccc(F)cc1 | ?
COc1ccccc1-n1c(O)c(C=Nc2c(C)n(C)n(-c3ccccc3)c2=O)c(=O)[nH]c1=O | -4%
CC(C)[C@@H]1CN[C@H](C(=O)O)[C@@H]1CC(=O)O | -6%
CCC(C)NC(=O)c1c(N)n(Cc2ccc3c(c2)OCO3)c2nc3ccccc3nc12 (configuration not stated) | -2%
COC(=O)C1=C(c2ccc(F)cc2F)C[C@@H]2CC[C@H]1N2C(=O)N1CCCCC1 | -3%
CN(C(=O)Oc1ccc(F)cc1)c1ccccc1 | -8%
CCCCC/C=C\C/C=C\C/C=C\C/C=C\CCCC(=O)Nc1ccc(O)cc1C | 0%&5%
c1ccc2c(CN3CCOCC3)c[nH]c2c1 | -18%
Cc1cc(N2CCNCC2)nc2ccccc12 | -12%
O=S1(=O)N(Cc2ccccc2Cl)CCCN1Cc1ccccc1Cl | -6%
NP(=O)(OCCCc1ccccc1)Oc1ccccc1Cl (configuration not stated) | -9%
COC(=O)C1=C(c2ccccc2)C[C@@H]2CC[C@H]1N2C(=O)NCCS(C)=O (some centres not stated) | -16%
CN(C)C(Cc1ccc(Cl)cc1)C(=O)c1ccccc1 (configuration not stated) | 0%
CCCCC(=O)N/N=C/c1c(O)n(Cc2ccc(F)cc2)c(=O)[nH]c1=O | -8%

# The list goes on.
canonical_smiles | VDR inh
COCCNC(=O)N1[C@H]2CC[C@@H]1C(C(=O)OC)=C(c1ccc(-c3ccccc3)c(F)c1)C2 | -7%
Brc1cc2c(cc1CN1CCN(c3ccccc3)CC1)OCCO2 | -9%
CCCCCC(O)C1C(=O)OC(C)C(O)\C=C/C=C\C=C/C=C\C=C(\C)C(O)C(O)C(O)CC(O)CC(O)CC(O)CC(O)CC1O (configuration not stated) | 2%
CCOC(=O)C1=C(C)OC(N)=C(C#N)C12C(=O)Nc1ccc(C)cc12 (configuration not stated) | -3%
Cc1ccc(C(=O)N[C@@H](C)CN2C3=NC[C@@H](Cc4ccccc4)N3C[C@H]2Cc2ccc(O)cc2)cc1Br | -12%
COc1ccc2c3c([nH]c2c1)C(C)=NCC3 | -10%&13%
O=C1c2ccccc2-c2cc3ccccc3cc21 | -17%
CC(C(=O)c1c[nH]c2ccccc12)N1CCN(C(=O)c2ccco2)CC1 (configuration not stated) | -6%
CCCCN1CCC(C#N)(Nc2ccccc2)CC1 | 12%
CCC(=NCc1cccnc1)c1c(O)n(-c2ccccc2C)c(=O)[nH]c1=O | 7%
CO[C@H]1[C@@H](O)[C@@H](C)O[C@H](O[C@H]2[C@H](Oc3cccc4c(O)c5c(=O)oc6ccc(C)c7c(=O)oc(c34)c5c67)O[C@H](C)[C@H](O)[C@@H]2O)[C@@H]1O | 15%
C=C/C(=C/C(=O)C[C@H](C)C[C@@H](C)CC[C@H](O)[C@H](C)C(=O)C[C@@H](O)[C@H](C)[C@@H](C)OC(=O)C[C@@H](O)C1=C(C)C(=O)OC1=O)CC | ?
CC1(C)COC(Nc2cccc(Cl)c2)=N1 | 7%
CN(C)[C@@H](Cc1ccccc1)c1ccccc1 | 5%
Cc1[nH]c2ccccc2c1CCNCc1ccco1 | -12%
COc1ccc(C(=O)OC2C[C@H]3CC[C@@H](C2)N3C)cc1OC (some centres not stated) | 8%
c1ccc(CNc2c3c(nc4ccccc24)CCC3)cc1 | 0%
COc1ccc(OP(=O)(Nc2ccccc2)Nc2ccccc2)cc1 | 2%
Cn1c(O)c(C(c2ccccn2)c2c(O)n(C)c(=S)[nH]c2=O)c(=O)[nH]c1=S | -8%
CN(C)c1ccc(/C=C2/C(=O)NC(=O)N(Cc3ccco3)C2=O)cc1 | ?
CC(=O)N1N=C(c2cccnc2)CC1c1ccccc1O (configuration not stated) | -2%
Cc1ccc(Cn2nnnc2CN2CCC(n3nnc4ccccc43)CC2)cc1 | -7%
CC(C)(O)C(Cl)(Cl)Cl | -9%&7%
COc1ccc2c(c1)CC1(CN2C)C(=O)NC(=O)N(c2ccc(F)cc2)C1=O (configuration not stated) | -13%
C[C@H](N)Cc1cccc(C(F)(F)F)c1 | 2%

# (list continues)
canonical_smiles | VDR inh
COc1ccc(OC)c(NC2=NCCCS2)c1 | -20%
CC(Cc1ccccc1)[n+]1cc(/N=C(\[O-])Nc2ccccc2)on1 (configuration not stated) | 21%
C[N+](C)(C)CC#CCN1CCCC1=O | 5%&-16%
COC(=O)C12CC3=CC(CC3=O)Cc3ccccc3[C@@H]1CNC2=O (some centres not stated) | -27%
O=C(Cn1cnc2ccccc2c1=O)NCCC(=O)N1CCC2(CC1)OCCO2 | -17%
CN1C[C@H](C(=O)N[C@]2(C)O[C@@]3(O)[C@@H]4CCCN4C(=O)[C@H](Cc4ccccc4)N3C2=O)CC2c3cccc4[nH]cc(c34)C[C@H]21 (some centres not stated) | ?
C=CCn1c(O)c(C(C)=Nc2cccc(C(F)(F)F)c2)c(=O)[nH]c1=O | -3%
CCC(=NCC1CCCO1)c1c(O)n(-c2ccc(OC)cc2)c(=O)[nH]c1=O (configuration not stated) | -2%
CC(=NCc1ccc(F)cc1)c1c(O)n(C)c(=O)n(C)c1=O | -18%
O=C(Nc1ccc(F)c([N+](=O)[O-])c1)N1C[C@H]2C[C@@H](C1)c1cccc(=O)n1C2 | -13%
O=C(O)COc1cc(Cl)c(Cl)cc1Cl | 0%
O=C1NC(=O)N(Cc2ccc(F)cc2)C(=O)/C1=C\c1ccoc1 | -1%
O=C(OCCN1CCCCC1)C(O)(c1ccccc1)c1ccccc1 | 1%
CCc1ccc(CN2CCCC(C(=O)c3sccc3C)C2)o1 (configuration not stated) | -5%
CC[N+](CC)(CC)CCCCCCCCCC[N+](CC)(CC)CC | 1%
Cc1ccc(N=C(/N=C(\N)N[N+](=O)[O-])Nc2ccc(C)cc2)cc1 | -10%
CN1C[C@@H](NS(=O)(=O)N(C)C)C[C@@H]2c3cccc4c3c(cn4C)C[C@H]21 | 9%
C[C@]12CC[C@H](O)C[C@@H]1CC[C@H]1[C@H]2CC[C@]2(C)C(=O)CC[C@@H]12 | 4%&1%&-9%
C[C@]12CC[C@@H]3[C@@H](CCC4=CC(=O)CC[C@@H]43)[C@@H]1CC[C@@H]2OC(=O)CCc1ccccc1 | -17%
CC(=O)O[C@@H]1CC[C@]2(C)C3CC[C@@]4(C)C(C[C@@H](O)[C@@H]4O)C3[C@@H](OC(C)=O)C[C@H]2C1 (some centres not stated) | -5%
O=[N+]([O-])NC1=NCN(Cc2ccco2)CN1Cc1ccco1 | ?
O=C1NC(=O)C(CCc2ccncc2)(c2ccccc2)C(=O)N1 | 14%
Cc1ccccc1CN1CCCN(Cc2ccc(Cl)cc2)S1(=O)=O | -1%
COC(=O)C1=C(c2ccc(OC)c(OC)c2)C[C@@H]2CC[C@H]1N2C(=O)NCc1ccc(F)cc1 | 5%
COC(=O)C1C(C(=O)O)C2(Cl)C(Cl)=C(Cl)C1(Cl)C2(Cl)Cl (configuration not stated) | 0%

# Additional entries
canonical_smiles | VDR inh
FC(F)(F)c1ccc2c(c1)ncn2C1CCN(Cc2nnnn2C2CCCCC2)CC1 | -2%
O=C(c1cc(Br)ccc1Cl)N1CCC2(CC1)OCCO2 | -1%
CCN1CCN(Cc2cc(OC)c3c(c2)OCO3)CC1 | -1%
O=c1[nH]c(=O)n(CCc2ccccc2)c(O)c1C=NCc1ccc2c(c1)OCO2 | -11%
CCCCCCn1c(=O)c(C(=O)Nc2cnccn2)c(O)c2ccccc21 | -3%
CC(C)=CC1C(C(=O)OCc2cccc(Oc3ccccc3)c2)C1(C)C (configuration not stated) | 15%
COc1ccc(C(CC(=O)N2CCC3(CC2)OCCO3)NS(=O)(=O)c2ccc(OC)cc2)cc1 (configuration not stated) | -2%
Cc1cc(C)c(C2=NOC(O)(C(F)(F)F)C2)c(=O)[nH]1 (configuration not stated) | 6%
CC(C)CC(=O)Nc1ccc(S(=O)(=O)N2CC3CC(C2)c2cccc(=O)n2C3)cc1 (configuration not stated) | -5%
CCc1ccc(N2C(=O)NC(=O)C(CCc3ccncc3)(CCc3ccncc3)C2=O)cc1 | 3%
CCCOc1ccc(C2SCC(=O)Nc3c2c(C)nn3-c2cccc(C)c2)cc1OC (configuration not stated) | 14%
C=CCn1c(CSc2ccccc2[N+](=O)[O-])n[nH]c1=S | ?
O=C(Cc1ccc([N+](=O)[O-])cc1)N1CCN(Cc2ccc3c(c2)OCO3)CC1 | -18%
Cc1cccc(N2CCc3c2nc2ccccc2c3N)c1 | -3%&-26%
Cc1cccc(-n2c(-c3cccs3)nc3ccccc3c2=O)c1 | -15%
CN(C)c1ccc(C=C2C(=O)NC(=S)NC2=O)cc1[N+](=O)[O-] | 22µM*
Cc1cc(-c2ccccc2)cc(-c2ccccc2)[n+]1CCc1ccccc1 | 14%
CCC(=O)OC(Cc1ccccc1)(c1ccccc1)[C@H](C)CN(C)C (some centres not stated) | -8%
COc1ccc(SCC2CN(C)CCC2c2ccc(F)cc2)cc1 (configuration not stated) | 12%
CCC1C(c2ccccc2)NC(c2ccccc2)CC1(O)c1ccc(F)cc1 (configuration not stated) | 12%
O=C(N[C@@H]1CN2CCC1CC2)c1cc(Cl)cc2[nH]cnc12 | 13%
CCCCC/C=C\C[C@@H](/C=C/C=C\C/C=C\CCCC(=O)O)OO | -14%&3%
COC(=O)C1=C(c2cc3ccccc3o2)C[C@@H]2CC[C@H]1N2C(=O)NCc1cccc2ccccc12 | -1%
C=C(C)C1CCC(C)=CC1c1c(O)cc(O)cc1CCCCC (configuration not stated) | ?
CCN(C(=O)CN1CC=C(c2ccccc2)CC1)c1c(N)n(Cc2ccccc2)c(=O)[nH]c1=O | -14%

# Additional results:
canonical_smiles | VDR inh
CCCCCCn1c(N)c(C(=O)NCCN2CCOCC2)c2nc3ccccc3nc21 | -9%
CCN(c1ccc(C(O)(C(=O)OC)C(F)(F)F)cc1)S(=O)(=O)c1ccc(C)cc1 (configuration not stated) | -2%
CC1CCCN(CC(=O)c2ccc(Cl)c(Cl)c2)C1 (configuration not stated) | ?
COC(=O)C1=C(c2ccc(F)cc2F)C[C@@H]2CC[C@H]1N2C(=O)NCCOc1ccc(OC)cc1 | -2%
c1coc(CNCCc2c[nH]c3ccccc23)c1 | 2%
CC(C)n1cc(C(=O)N(CC(=O)NC(C)(C)C)Cc2ccccc2)cn1 | 12%
CC(=O)OC[C@]12CCC(C)=C[C@H]1O[C@@H]1[C@H](O)[C@@H](OC(C)=O)[C@@]2(C)[C@]12CO2 | -1%
CC1/C=C/C=C/CC/C=C/C=C/C=C/C=C/C(OC2OC(C)C(O)C(N)C2O)CC2O[C@](O)(CC(O)C(O)CCC(O)CC(O)CC(O)CC(=O)OC(C)C(C)C1O)CC(O)C2C(=O)O (some centres not stated) | -1%
CCC1(C)CC(C(N)=S)CCO1 (configuration not stated) | 20µM*
C/C(=N\NP(=S)(c1ccccc1)c1ccccc1)c1ccc(O)cc1O | -5%
C=C1[C@@H](C)[C@H]2[C@H](Cc3ccccc3)NC(=O)[C@]23OC(=O)/C=C/[C@H](O)CCC[C@@H](C)C/C=C/[C@H]3[C@@H]1O | 1%&7%&0%
CCC(=NCCN1CCOCC1)c1c(O)n(-c2ccccc2C)c(=O)[nH]c1=O | -2%

# Compounds listed so far that have two or more sulfur atoms (two):
canonical_smiles | VDR inh
Cn1c(O)c(C(c2ccccn2)c2c(O)n(C)c(=S)[nH]c2=O)c(=O)[nH]c1=S | -8%
C=CCn1c(CSc2ccccc2[N+](=O)[O-])n[nH]c1=S | ?

# 4 entries from above, field by field.
> CO[C@H]1[C@@H](O)[C@@H](C)O[C@H](O[C@H]2[C@H](Oc3cccc4c(O)c5c(=O)oc6ccc(C)c7c(=O)oc(c34)c5c67)O[C@H](C)[C@H](O)[C@@H]2O)[C@@H]1O
  VDR inh = 15%

> C=C(C)C1CCC(C)=CC1c1c(O)cc(O)cc1CCCCC (configuration not stated)
  VDR inh = ?

> CCC(=NCc1cccnc1)c1c(O)n(-c2ccccc2C)c(=O)[nH]c1=O
  VDR inh = 7%

> Cc1ccccc1CN1CCCN(Cc2ccc(Cl)cc2)S1(=O)=O
  VDR inh = -1%

# Some of the compounds tested. The share of hits here may be higher or lower than overall.
